# A1 apoptosis 2: compounds inhibiting A1, read as caspase activation; MEF A1-2A-BIM cells, caspase-Glo luminescence, 3 h; percent of clofoctol response, DMSO zero; 24,000 tested, under 10 active; caspase activation, % (test concentration not listed); AID 2465; in the data active means caspase activation above about 5.9%;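 further: wells of about 30 µL received 50 nL stock; the first replicate is given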
#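 Evaluation: Caspase-3/7 activity from luminescence increase | Assay system: A1-2A-BIM mouse embryonic fibroblasts | Quantity: 2500 MEF cells/well | Medium: RPMI-1640 plus 10% FBS | Detection: Caspase-Glo 3/7 luminescence, 1 h at room temperature | Dosing: 50 nL compound per well, pinned | Timing: Cells settled overnight, compound exposure 3 h at 37 °C, 5% CO2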
# Active calls of the source: *. This is a subset; count on the stated rates, not on these rows.
1) C[C@H](CO)N1C[C@H](C)[C@@H](CN(C)C(=O)Nc2ccc(C(F)(F)F)cc2)Oc2ccc(NC(=O)Nc3ccccc3)cc2CC1=O
  A1 apoptosis 2: 0.0
2) C[C@@H]1CN([C@@H](C)CO)C(=O)CCCn2cc(nn2)CO[C@H]1CN(C)C(=O)Nc1cccc(Oc2ccccn2)c1
  A1 apoptosis 2: -1.4
3) C[C@@H]1CN([C@H](C)CO)C(=O)Cc2cc(NS(=O)(=O)c3cccs3)ccc2O[C@@H]1CN(C)Cc1ccccc1
  A1 apoptosis 2: -0.6
4) CNC[C@@H]1Oc2c(NC(=O)Nc3ccccc3)cccc2C(=O)N([C@H](C)CO)C[C@H]1C
  A1 apoptosis 2: 1.2
5) Cc1noc(C)c1S(=O)(=O)Nc1cccc2c1O[C@H](CN(C)CC1CCCCC1)[C@H](C)CN([C@H](C)CO)C2=O
  A1 apoptosis 2: -0.7
6) C[C@@H]1CN([C@H](C)CO)C(=O)c2cccc(NC(=O)Nc3ccc(F)cc3)c2O[C@H]1CN(C)Cc1ccc(C(=O)Nc2ccccc2N)cc1
  A1 apoptosis 2: 0.5
7) O=C(Nc1ccccc1)C1=C[C@@H](c2ccc3c(c2)OCO3)C[C@@H](OCCCCO)O1
  A1 apoptosis 2: 0.0
8) C[C@H](CO)N1C[C@H](C)[C@@H](CN(C)S(=O)(=O)c2cn(C)cn2)Oc2ccc(N(C)C)cc2C1=O
  A1 apoptosis 2: -1.2
9) Cc1ccc(S(=O)(=O)N(C)C[C@@H]2OCCCC[C@@H](C)Oc3ccc(NC(=O)NC(C)C)cc3C(=O)N([C@@H](C)CO)C[C@H]2C)cc1
  A1 apoptosis 2: 0.1
10) C[C@@H]1CN([C@@H](C)CO)C(=O)Cc2cc(NC(=O)Cc3cn(C)c4ccccc34)ccc2O[C@H]1CN(C)Cc1ccc(C(=O)Nc2ccccc2N)cc1
  A1 apoptosis 2: -0.6

11) C[C@H](CO)N1C[C@H](C)[C@H](CN(C)S(=O)(=O)c2ccc(Cl)cc2)Oc2c(NC(=O)Nc3ccc(F)cc3)cccc2C1=O
  A1 apoptosis 2: 1.8
12) Cc1ccc(S(=O)(=O)Nc2ccc3c(c2)CC(=O)N([C@@H](C)CO)C[C@@H](C)[C@@H](CN(C)Cc2ccc(-c4ccccc4)cc2)O3)cc1
  A1 apoptosis 2: -1.2
13) COC(=O)C(CC#Cc1ccc2c(c1)[C@]1(C(=O)N2)[C@H](c2ccc(OCCO)cc2)N2[C@H](c3ccccc3)[C@H](c3ccccc3)OC(=O)[C@H]2[C@@H]1C(=O)NC[C@H](O)c1ccccc1)C(=O)OC
  A1 apoptosis 2: 0.8
14) COc1ccc(NC(=O)Nc2cccc3c2O[C@H](CN(C)C)[C@@H](C)CN([C@@H](C)CO)C3=O)cc1
  A1 apoptosis 2: -1.2
15) C[C@@H]1CN([C@@H](C)CO)C(=O)c2cc(NC(=O)NC3CCCCC3)ccc2O[C@H]1CN(C)S(=O)(=O)c1cn(C)cn1
  A1 apoptosis 2: 0.8
16) O=C(NO)c1ccc(C(=O)N/N=C/c2ccc(O)cc2O)cc1
  A1 apoptosis 2: -1.7
17) C[C@@H]1CCCCO[C@@H](CN(C)C(=O)CCCN(C)C)[C@H](C)CN([C@H](C)CO)C(=O)c2cc(NC(=O)Cc3ccccc3)ccc2O1
  A1 apoptosis 2: -1.3
18) C[C@@H]1CN([C@@H](C)CO)C(=O)c2cc(NC(=O)C3CCCCC3)ccc2O[C@@H](C)CCCCO[C@@H]1CN(C)C(=O)Nc1ccccc1
  A1 apoptosis 2: 0.4
19) C[C@H]1CN([C@@H](C)CO)C(=O)CCCn2nncc2CO[C@H]1CN(C)C(=O)Nc1cccc2ccccc12
  A1 apoptosis 2: 0.4
20) Cc1ccc(S(=O)(=O)N(C)C[C@H]2Oc3c(NC(=O)c4ccncc4)cccc3C(=O)N([C@@H](C)CO)C[C@H]2C)cc1
  A1 apoptosis 2: -1.2

21) C[C@@H]1CN([C@@H](C)CO)C(=O)c2cc(NC(=O)c3ccncc3)ccc2O[C@@H]1CN(C)C(=O)Nc1ccc(F)cc1
  A1 apoptosis 2: -1.6
22) C[C@H](CO)N1C[C@H](C)[C@@H](CN(C)S(=O)(=O)c2ccccc2)OCCCC[C@H](C)Oc2ccc(NC(=O)CCC(F)(F)F)cc2C1=O
  A1 apoptosis 2: 0.6
23) COc1ccc(CN(C)C[C@@H]2Oc3ccc(NC(=O)Nc4c(C)noc4C)cc3CC(=O)N([C@@H](C)CO)C[C@@H]2C)cc1
  A1 apoptosis 2: 0.3
24) C[C@@H]1CCCCO[C@H](CN(C)S(=O)(=O)c2cccs2)[C@@H](C)CN([C@H](C)CO)C(=O)c2cc(NS(=O)(=O)c3cccs3)ccc2O1
  A1 apoptosis 2: -0.7
25) C[C@@H]1CN([C@H](C)CO)C(=O)c2cc(NC(=O)CCCCCC(=O)Nc3ccccc3N)ccc2O[C@@H]1CN(C)C(=O)Nc1ccccc1
  A1 apoptosis 2: 0.8
26) C[C@@H]1CN([C@@H](C)CO)C(=O)c2cccc(NS(=O)(=O)c3ccc(Cl)cc3)c2O[C@H]1CN(C)C(=O)NC1CCCCC1
  A1 apoptosis 2: -0.2
27) C[C@H](CO)N1C[C@H](C)[C@@H](CN(C)C(=O)c2cc(-c3ccccc3)on2)OCc2cn(nn2)CCCC1=O
  A1 apoptosis 2: 0.4
28) CC(C)NC(=O)Nc1ccc2c(c1)CC(=O)N([C@H](C)CO)C[C@H](C)[C@H](CN(C)CC1CC1)O2
  A1 apoptosis 2: -0.8
29) C[C@@H]1CCCCO[C@@H](CN(C)C(=O)Nc2ccccc2)[C@H](C)CN([C@@H](C)CO)C(=O)c2cc(NC(=O)Nc3cccc4ccccc34)ccc2O1
  A1 apoptosis 2: 0.5
30) C[C@@H]1CCCCO[C@H](CN(C)C(=O)Nc2ccc3c(c2)OCO3)[C@H](C)CN([C@@H](C)CO)C(=O)c2cc(NC(=O)CCCN(C)C)ccc2O1
  A1 apoptosis 2: 0.4

# A different layout for part of the listing above.
cpd	Structure	A1 apoptosis 2
29	C[C@@H]1CCCCO[C@@H](CN(C)C(=O)Nc2ccccc2)[C@H](C)CN([C@@H](C)CO)C(=O)c2cc(NC(=O)Nc3cccc4ccccc34)ccc2O1	0.5
22	C[C@H](CO)N1C[C@H](C)[C@@H](CN(C)S(=O)(=O)c2ccccc2)OCCCC[C@H](C)Oc2ccc(NC(=O)CCC(F)(F)F)cc2C1=O	0.6

# Carrying on.
31) C[C@@H]1CN([C@@H](C)CO)C(=O)Cc2cc(NC(=O)Nc3ccc(C(F)(F)F)cc3)ccc2O[C@H]1CN(C)S(=O)(=O)c1cccs1
  A1 apoptosis 2: 0.6
32) C[C@H]1CN([C@@H](C)CO)C(=O)Cc2cc(NS(C)(=O)=O)ccc2O[C@H]1CN(C)S(C)(=O)=O
  A1 apoptosis 2: -0.2
33) C[C@H](CO)N1C[C@H](C)[C@@H](CN(C)Cc2ccc(Cl)c(Cl)c2)Oc2ccc(NC(=O)Nc3ccccc3)cc2CC1=O
  A1 apoptosis 2: 0.2
34) COc1ccc(NC(=O)Nc2cccc3c2O[C@H](CN(C)S(=O)(=O)c2cccs2)[C@@H](C)CN([C@H](C)CO)C3=O)cc1
  A1 apoptosis 2: 0.4
35) Cc1noc(C)c1NC(=O)N(C)C[C@H]1Oc2c(NC(=O)C3CCCCC3)cccc2C(=O)N([C@@H](C)CO)C[C@H]1C
  A1 apoptosis 2: -0.5
36) C[C@@H]1CN([C@@H](C)CO)C(=O)c2cc(NS(=O)(=O)c3ccccc3)ccc2O[C@H]1CN(C)CC1CC1
  A1 apoptosis 2: -1.0
37) CC(C)NC(=O)Nc1ccc2c(c1)C(=O)N([C@H](C)CO)C[C@H](C)[C@@H](CN(C)CC1CC1)OCCCC[C@H](C)O2
  A1 apoptosis 2: 0.9
38) COc1cc2c(cc1OC)CN(C(=O)[C@H]1[C@@H]3C(=O)O[C@@H](c4ccccc4)[C@@H](c4ccccc4)N3[C@@H](c3ccccc3OCCO)[C@]13C(=O)Nc1ccc(C#CC4(O)CCCCCC4)cc13)CC2
  A1 apoptosis 2: -0.3
39) C=CCOC(=O)[C@H]1[C@@H]2C(=O)O[C@@H](c3ccccc3)[C@@H](c3ccccc3)N2[C@@H](c2ccc(OCCOC(=O)[C@H]3C[C@H]4C(=O)N5CCC[C@H]5C(=O)N4[C@H]3c3cccc(OCCO)c3)cc2)[C@]12C(=O)Nc1ccccc12
  A1 apoptosis 2: 0.0
40) C[C@H](CO)N1C[C@H](C)[C@@H](CN(C)C(=O)NC2CCCCC2)Oc2ccc(NC(=O)Nc3ccc4c(c3)OCO4)cc2C1=O
  A1 apoptosis 2: -0.5

41) C=CCNC(=O)[C@@H]1[C@H]2C(=O)O[C@H](c3ccccc3)[C@H](c3ccccc3)N2[C@H](c2ccc(OCCO)cc2)[C@@]12C(=O)Nc1ccc(C#CC3=CCCCC3)cc12
  A1 apoptosis 2: -0.1
42) Cc1noc(C)c1NC(=O)Nc1cccc2c1O[C@@H](CN(C)C(=O)Nc1ccccc1)[C@@H](C)CN([C@@H](C)CO)C2=O
  A1 apoptosis 2: 0.3
43) Cc1ccc(S(=O)(=O)N(C)C[C@H]2OCCCC[C@H](C)Oc3ccc(NC(=O)Cc4ccccc4)cc3C(=O)N([C@@H](C)CO)C[C@H]2C)cc1
  A1 apoptosis 2: -0.1
44) C[C@H]1CCCCO[C@H](CN(C)Cc2ccccc2)[C@@H](C)CN([C@@H](C)CO)C(=O)c2cc(NC(=O)Nc3ccc(F)cc3)ccc2O1
  A1 apoptosis 2: 2.6
45) COc1cccc(NC(=O)N(C)C[C@H]2OCc3cnnn3CCCC(=O)N([C@@H](C)CO)C[C@H]2C)c1
  A1 apoptosis 2: 0.2
46) C[C@H](CO)N1C[C@H](C)[C@@H](CN(C)C(=O)NC2CCCCC2)Oc2ccc(NC(=O)Nc3ccc(F)cc3)cc2C1=O
  A1 apoptosis 2: -2.0
47) Cc1ccc(S(=O)(=O)N(C)C[C@H]2OCCCC[C@H](C)Oc3ccc(NC(=O)CCCN(C)C)cc3C(=O)N([C@H](C)CO)C[C@@H]2C)cc1
  A1 apoptosis 2: -1.5
48) C[C@H]1CN([C@@H](C)CO)C(=O)Cc2cc(NS(=O)(=O)c3cccs3)ccc2O[C@H]1CN(C)C
  A1 apoptosis 2: 0.0
49) COc1ccc(S(=O)(=O)Nc2ccc3c(c2)C(=O)N([C@H](C)CO)C[C@H](C)[C@@H](CN(C)Cc2ccncc2)OCCCC[C@@H](C)O3)cc1
  A1 apoptosis 2: -1.5
50) CCCN(C)C[C@H]1OCCCC[C@@H](C)Oc2ccc(NC(=O)CCC(F)(F)F)cc2C(=O)N([C@@H](C)CO)C[C@H]1C
  A1 apoptosis 2: -1.1

# Reformatted as tab-separated lines: 2 of the compounds above
no.	SMILES	A1 apoptosis 2
44	C[C@H]1CCCCO[C@H](CN(C)Cc2ccccc2)[C@@H](C)CN([C@@H](C)CO)C(=O)c2cc(NC(=O)Nc3ccc(F)cc3)ccc2O1	2.6
48	C[C@H]1CN([C@@H](C)CO)C(=O)Cc2cc(NS(=O)(=O)c3cccs3)ccc2O[C@H]1CN(C)C	0.0

# Further structures follow:
51) C[C@H]1CCCCO[C@@H](CN(C)Cc2ccc3c(c2)OCO3)[C@@H](C)CN([C@@H](C)CO)C(=O)c2cc(NC(=O)CCC(F)(F)F)ccc2O1
  A1 apoptosis 2: -0.7
52) Cc1ccc(S(=O)(=O)N(C)C[C@H]2OCCCC[C@@H](C)Oc3ccc(NC(=O)NC(C)C)cc3C(=O)N([C@H](C)CO)C[C@H]2C)cc1
  A1 apoptosis 2: 0.3
53) C[C@H](CO)N1C[C@H](C)[C@H](CN(C)C)Oc2ccc(NC(=O)Nc3ccc(C(F)(F)F)cc3)cc2CC1=O
  A1 apoptosis 2: -1.7
54) Cc1noc(C)c1NC(=O)Nc1cccc2c1O[C@H](CN(C)C(=O)Nc1ccc3c(c1)OCO3)[C@H](C)CN([C@@H](C)CO)C2=O
  A1 apoptosis 2: -0.2
55) CC(C)NC(=O)Nc1ccc2c(c1)CC(=O)N([C@@H](C)CO)C[C@H](C)[C@H](CN(C)C)O2
  A1 apoptosis 2: -0.3
56) COc1ccc(NC(=O)Nc2cccc3c2O[C@@H](CN(C)C)[C@@H](C)CN([C@H](C)CO)C3=O)cc1
  A1 apoptosis 2: 0.1
57) COc1ccc(S(=O)(=O)Nc2ccc3c(c2)C(=O)N([C@@H](C)CO)C[C@@H](C)[C@@H](CN(C)CC2CCCCC2)O3)cc1
  A1 apoptosis 2: 0.2
58) CC(C)[C@@H]1C=C(C(=O)O)O[C@H](OCc2ccc(CO)cc2)C1
  A1 apoptosis 2: 0.5
59) COc1ccc(NC(=O)N(C)C[C@H]2Oc3c(NS(=O)(=O)c4ccc(OC)cc4)cccc3C(=O)N([C@@H](C)CO)C[C@@H]2C)cc1
  A1 apoptosis 2: 0.5
60) COc1ccc(S(=O)(=O)N(C)C[C@H]2Oc3ccc(NC(=O)Cc4ccccc4)cc3CC(=O)N([C@@H](C)CO)C[C@@H]2C)cc1
  A1 apoptosis 2: -1.0

# Arranged by formula weight (largest number first): five of the compounds above
59) COc1ccc(NC(=O)N(C)C[C@H]2Oc3c(NS(=O)(=O)c4ccc(OC)cc4)cccc3C(=O)N([C@@H](C)CO)C[C@@H]2C)cc1
  A1 apoptosis 2: 0.5
60) COc1ccc(S(=O)(=O)N(C)C[C@H]2Oc3ccc(NC(=O)Cc4ccccc4)cc3CC(=O)N([C@@H](C)CO)C[C@@H]2C)cc1
  A1 apoptosis 2: -1.0
57) COc1ccc(S(=O)(=O)Nc2ccc3c(c2)C(=O)N([C@@H](C)CO)C[C@@H](C)[C@@H](CN(C)CC2CCCCC2)O3)cc1
  A1 apoptosis 2: 0.2
55) CC(C)NC(=O)Nc1ccc2c(c1)CC(=O)N([C@@H](C)CO)C[C@H](C)[C@H](CN(C)C)O2
  A1 apoptosis 2: -0.3
58) CC(C)[C@@H]1C=C(C(=O)O)O[C@H](OCc2ccc(CO)cc2)C1
  A1 apoptosis 2: 0.5
